# Assay outcomes deposited in PubChem BioAssay by several laboratories.
# rRNA inh HTS = inhibitors of bacterial rRNA selective over humanized ribosomes; E. coli WT GFP vs humanized-ribosome RFP mutants, fluorescence, 24 h; active compounds read low; DMSO median 0, no signal -100; GFP signal change (wild-type ribosome), % (no concentration beside the values); 1.6% of 350,000 active; AID 720706;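 active = significant combined selectivity score with lowered wild-type GFP, culture density cut under 30%, mutant RFP and density less affected; inactive = any of these conditions unmet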; note: one replicate is shown; some compounds called inactive have numbers as strong as hits
# T cruzi repl = T. cruzi replication inhibition; AID 1885; inhibition, % (test concentration not listed); T. cruzi beta-gal in NIH3T3, luminescence, 90 h; 1.4% of 300,000 active;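 active = mean inhibition across valid replicates above about 55%, limit read from the data; inconclusive = mean below that limit but half or more replicates reach it; inactive = mean below it, under half of replicates reach it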;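 note: signal also drops with host cell toxicity which is not excluded here; 0% = plate median of DMSO wells and 100% = zero luminescence signal; higher percent means less beta-gal luminescence so fewer parasites; stock transfer was 50 nL into about 50 µL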
# UCH37 inh = human UCH37 deubiquitinating enzyme inhibition | purified proteasome/UCH37, Ub-AMC cleavage fluorescence | inhibition, % (test concentration not listed) | 0.33% of 330,000 active;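 active = mean of two replicates above 20%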;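 note: 0% = compound-free wells with enzyme and 100% = wells lacking proteasome; stock transfer was 100 nL into about 20 µL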
# Target sequence (Q9Y5K5 whole entry, looked up): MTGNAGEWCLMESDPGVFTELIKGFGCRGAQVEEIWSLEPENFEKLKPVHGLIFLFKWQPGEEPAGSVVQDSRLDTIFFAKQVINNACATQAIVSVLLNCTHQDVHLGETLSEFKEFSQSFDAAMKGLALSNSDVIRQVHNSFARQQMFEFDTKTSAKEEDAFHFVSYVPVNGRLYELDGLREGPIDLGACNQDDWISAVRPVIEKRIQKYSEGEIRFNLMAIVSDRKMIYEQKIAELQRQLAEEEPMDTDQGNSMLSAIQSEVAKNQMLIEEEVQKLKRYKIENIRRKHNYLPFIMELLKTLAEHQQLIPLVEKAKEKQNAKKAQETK
#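 Material: Human UCH37 enzyme supplied as purified proteasome complex | Schedule: 30 min preincubation with enzyme, 25 min cleavage at room temperature | Detection: AMC fluorescence 355/460 nm | Measure: % inhibition of Ub-AMC cleavage fluorescence | Controls: Wells without proteasome as full block, compound-free enzyme plus substrate as uninhibited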
# A1 inh = inhibitors of the anti-apoptotic protein A1, read as caspase activation | MEF A1-2A-BIM cells, Caspase-Glo 3/7 luminescence, 3 h; percent of clofoctol response, vehicle zero | caspase activation, % (no concentration beside the values) | 0.066% of 330,000 active | AID 2462;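 active = over half of replicate activation scores above 10%, or exactly half above 10 with the replicate mean above 10; inconclusive = replicate mean below 10 yet half the replicates above 10; inactive = over half of replicates below 10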;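 note: wells of about 30 µL received 50 nL stock; many hits fall short of the cut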
# MLL AF4-AF9 inh = inhibitors of human MLL-AF4/AF9 interaction. P42568. AlphaScreen, biotin-AF4 peptide binding to FLAG-AF9. 0.47% of 350,000 active. inhibition, % at 10 µM;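 active = every replicate reaching a set inhibition limit, whatever the replicate mean, cut at about 25% in these data; inconclusive = mean inhibition reaches that limit but some replicates miss it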;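 note: 0% = plate neutral control median and 100% = total signal loss; the record names both 10 and 1 µM as test concentration; the first replicate is given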
# Target sequence (P42568 whole entry, looked up): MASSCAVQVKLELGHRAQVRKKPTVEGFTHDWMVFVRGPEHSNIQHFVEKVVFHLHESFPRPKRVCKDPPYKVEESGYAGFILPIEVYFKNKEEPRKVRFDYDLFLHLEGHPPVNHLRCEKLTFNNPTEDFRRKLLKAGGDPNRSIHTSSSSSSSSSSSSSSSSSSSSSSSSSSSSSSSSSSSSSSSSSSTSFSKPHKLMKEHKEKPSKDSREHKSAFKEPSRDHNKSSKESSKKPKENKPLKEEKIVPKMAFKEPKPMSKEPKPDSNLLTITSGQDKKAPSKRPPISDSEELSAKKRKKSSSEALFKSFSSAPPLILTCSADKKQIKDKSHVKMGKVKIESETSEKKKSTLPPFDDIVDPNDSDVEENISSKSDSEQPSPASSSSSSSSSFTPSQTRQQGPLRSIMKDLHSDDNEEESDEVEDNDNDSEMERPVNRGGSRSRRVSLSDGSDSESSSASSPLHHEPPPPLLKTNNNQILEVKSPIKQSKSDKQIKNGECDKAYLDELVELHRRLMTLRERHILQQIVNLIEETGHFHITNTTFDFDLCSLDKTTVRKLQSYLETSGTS
# FGF22 binding = shifts melting point of recombinant human FGF22 | Q9HCT0 | recombinant FGF22 thermal shift, SYPRO orange fluorescence; percent of sucrose octasulfate shift, DMSO zero | calls only at 9.99 µM | 1.5% of 340,000 active;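 active = melting point raised past a set limit in the mean and every replicate; inconclusive = no clear call; three in four hits are not shown here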
# Target sequence (Q9HCT0 whole entry, looked up): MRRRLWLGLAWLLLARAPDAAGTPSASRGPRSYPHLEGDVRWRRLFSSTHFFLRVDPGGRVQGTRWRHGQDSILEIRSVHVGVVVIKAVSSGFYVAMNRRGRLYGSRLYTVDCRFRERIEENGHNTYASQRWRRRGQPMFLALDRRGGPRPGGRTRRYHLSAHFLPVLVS
# Beta cell apopt = beta cell apoptosis inhibition; protection from apoptosis, % (test concentration not listed); 0.8% of 300,000 active; INS-1E cytokine-induced death, ATP luminescence, 48 h; percent of positive-control rescue, neutral wells zero; AID 435005;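 active = all replicates at 75% or more, or half of them and the mean; inconclusive = half reach 75% but not the mean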;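 note: 0% = cytokine-treated negative control wells and 100% = positive control rescue; higher means more ATP so stronger rescue from cytokine killing; wells of about 40 µL received 100 nL stock; the first replicate is given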
# Ecoli growth = blocks Escherichia coli growth; OD600, 23 h; active compounds read low; OD600 absorbance (test concentration not listed); 0.21% of 330,000 active; AID 1053175;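 active = OD600 absorbance below the run mean of sample wells minus 3.6 SD, in any replicate, cut at about 0.56 in these data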;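 note: stock transfer was 300 nL into about 60 µL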
# rRNA inh HTS OD600 = further read-out of rRNA inh HTS, marked with its call; OD600 change, %; measured here: OD600 growth;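 optical density of the mix in the first replicate; 0 = DMSO median and -100 = no signal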
# rRNA inh HTS RFP = second read-out of rRNA inh HTS, no call of its own (marks repeat the call); RFP signal change, %; measured here: RFP humanized mutant strains;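 first replicate; 0 = DMSO median and -100 = no signal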
# * hit, by the source's call; i = inactive; ? = inconclusive; · = no result given.
SMILES,rRNA inh HTS,rRNA inh HTS OD600,rRNA inh HTS RFP,T cruzi repl,UCH37 inh,A1 inh,MLL AF4-AF9 inh,FGF22 binding,Beta cell apopt,Ecoli growth
CCCCn1c(N)c(N(CCOC)C(=O)CN(C)S(=O)(=O)c2ccc(F)cc2)c(=O)[nH]c1=O,11,17,0.1,-15,-3.9,0.5,1.9,i,-2,0.7
COC(=O)c1ccccc1NC(=O)CSc1nnc(COc2cccc(OC)c2)n1C,·,·,·,5,2.9,0.4,·,·,·,0.73
O=C(CN(C(=O)CNC(=O)c1ccco1)c1ccc(F)c(Cl)c1)NC1CCCCC1,·,·,·,8,2.5,-0.2,9.9,i,-5,0.66
O=C(Nc1cc(C(F)(F)F)ccc1N1CCOCC1)c1cncc(Br)c1,·,·,·,24,3.0,1.0,·,·,5,0.73
Cc1onc(-c2ccccc2Cl)c1C(=O)Oc1cccc2cccnc12,-29,-37,-6.2,2,5.6,0.4,-3.1,i,0,0.72
Cc1ccc(C)c(N2CCN(C(=O)c3csc(C)c3C)CC2)c1,·,·,·,-17,4.1,-0.3,·,·,-6,0.65
C=CS(=O)(=O)N(Cc1ccccc1Br)[C@H](CO)CC(C)C,-48,-73,-17,·,1.0,·,1.4,i,·,·
CCCCC(=O)Nc1ccc(S(=O)(=O)N2CCCCC2c2cccnc2)cc1 (centres undefined),-17,-13,3.6,15,1.5,0.2,-1.4,i,2,0.69
CC(C)N(Cc1ccccc1)C(=O)CC(=O)N(Cc1ccccc1)C(C)C,8,10,4.6,-5,0.8,-0.1,-1.3,i,-2,0.69
CCc1ccc(CNC(=O)CCS(=O)(=O)Cc2ccc(C)cc2)cc1,4,3,-0.4,8,0.9,0.6,-1.5,i,1,0.63

# The list goes on; it opens with the four that closed the last part.
SMILES,rRNA inh HTS,rRNA inh HTS OD600,rRNA inh HTS RFP,T cruzi repl,UCH37 inh,A1 inh,MLL AF4-AF9 inh,FGF22 binding,Beta cell apopt,Ecoli growth
C=CS(=O)(=O)N(Cc1ccccc1Br)[C@H](CO)CC(C)C,-48,-73,-17,·,1.0,·,1.4,i,·,·
CCCCC(=O)Nc1ccc(S(=O)(=O)N2CCCCC2c2cccnc2)cc1 (centres undefined),-17,-13,3.6,15,1.5,0.2,-1.4,i,2,0.69
CC(C)N(Cc1ccccc1)C(=O)CC(=O)N(Cc1ccccc1)C(C)C,8,10,4.6,-5,0.8,-0.1,-1.3,i,-2,0.69
CCc1ccc(CNC(=O)CCS(=O)(=O)Cc2ccc(C)cc2)cc1,4,3,-0.4,8,0.9,0.6,-1.5,i,1,0.63
Cc1c(/C(O)=C2/C(=O)C(=O)N(Cc3cccnc3)C2c2cccs2)cnn1-c1ccccc1 (centres undefined),·,·,·,-3,7.8,-1.0,·,·,0,0.69
O=C(OCc1ccc(Cl)cc1)c1cccnc1Cl,-6,-8,-3.5,5,-1.4,-0.4,-3.9,i,1,0.66
NC(=O)COC(=O)CSc1cccc2cccc(Cl)c12,-29*,-22*,-5.2*,-20,1.9,-0.1,-2.8,i,·,0.65
Cc1ccc(S(=O)(=O)CCC(=O)Nc2ccc3c(c2)OCO3)cc1,·,·,·,15,1.9,0.2,·,·,-1,0.71
O=C(CN1C(=O)C2CC=CCC2C1=O)Nc1ccc(OC(F)(F)F)cc1 (centres undefined),1,6,-1.3,·,-0.3,·,-3.8,i,·,0.71
O=C(O)CCNc1cc2ccccc2cc1C(=O)O,·,·,·,-6,2.7,0.0,·,·,0,0.73
O=C(Nc1ccc(Cl)cc1)N1CCc2ccccc2C1,-28,-35,1.6,5,1.1,1.1,-1.6,·,·,0.65
Cc1cc(C)n2nc(SCC(=O)N3CCCC(C)C3)nc2n1 (centres undefined),5,13,2.0,·,3.1,-0.2,-3.8,i,5,0.71
CC(=O)c1c(COC(=O)c2ccc(Cl)cc2)nc2ccccc2[n+]1[O-],6,9,-0.6,-3,5.0,-0.3,-0.2,i,-4,0.66
CCN(CC)Cc1c(C(=O)N/N=C/c2ccc(C)o2)nnn1-c1nonc1N,8,8,0.8,3,·,0.2,1.7,·,-6,·
O=C(CN1CCN(Cc2ccc(F)cc2)C1=O)NC1CCCC1,7,6,-3.7,1,0.4,0.3,0.7,i,-9,0.67
CCC(=O)N=c1n(C)c2ccccc2n1CCOc1ccccc1,·,·,·,5,·,-0.3,1.3,i,3,·
COc1cccc(OCC(O)CN2CCC(CN3C(=O)c4cccc5cccc(c45)C3=O)CC2)c1 (centres undefined),-36,-57,42,63*,-79,-0.6,34*,i,23,0.66
CC(Oc1cccc2ccccc12)C(=O)N/N=C/c1cccnc1 (centres undefined),-1,4,6.2,7,·,1.0,-0.1,i,-3,·
Cc1cc(NC(=O)c2ccc(S(=O)(=O)N3CCOCC3)cc2)no1,6,4,-0.3,-17,1.3,0.0,-5.4,i,-3,0.63
COc1cc(-c2cc(N)n(S(=O)(=O)c3ccccc3)n2)cc(OC)c1OC,6,14,-2.2,6,6.1,-0.2,-3.1,i,·,0.74
COc1cc2[nH]c(=S)nc(NC3CCCCCC3)c2cc1OC,-39,-64,0.3,49,-38,0.0,3.7,i,32,0.66
Cc1cccc(C(O)(C(=O)NNc2ccc3ccccc3n2)c2cccc(C)c2)c1,·,·,·,-17,-4.1,0.5,·,·,2,0.71
CCOc1cc2[nH]c(=O)n(CCCN3CCCC3=O)c(=O)c2cc1OCC,·,·,·,0,-9.3,0.0,·,·,3,0.65
O=C(Cn1ncc2c(=O)oc3ccccc3c21)N1CCCc2ccccc21,·,·,·,-9,1.8,1.3,·,·,0,0.65
Cn1c(N)c(C(=O)COC(=O)c2ccccc2NCc2ccco2)c(=O)n(C)c1=O,14,10,4.0,-2,-74,0.1,-0.1,i,·,0.69
CC(C)C(C(=O)Nc1ccc2c(c1)OCCO2)N1C(=O)c2ccccc2C1=O (centres undefined),·,·,·,-3,5.4,0.4,·,·,-6,0.69
Cc1cc(C)c(S(=O)(=O)N2CCOCC2)cc1C,7,4,-2.5,2,3.0,0.7,-1.9,·,·,0.68
O=C1C[C@@H]2CCN3C(=O)CCC[C@@H]([C@H]23)[C@H]1Cc1ccccc1,20,14,1.0,·,0.3,·,-0.6,i,·,0.7
CC(=O)O/N=C/c1c(NCc2ccccc2)nc2c(C)cccn2c1=O,-2,-7,-2.6,12,·,1.3,3.0,i,·,·
COc1ccc2[nH]c(C)c(CCNC(=S)Nc3ccc(F)cc3)c2c1,-11,-15,-3.6,7,5.2,0.3,12,i,-11,0.7
Cc1ccc(-n2c(SCC(=O)Nc3ccc(Cl)cc3)nc(O)cc2=O)cc1,4,5,13,-29,2.3,-0.3,-6.4,i,-12,0.67
O=c1c2ccccc2nc2c3ccccc3c(NCc3cccnc3)nn12,13,16,0.6,28,-205,-0.6,-0.8,i,7,0.68
Cc1nc2ccccc2cc1C(=O)N/N=C/c1ccco1,1,13,-0.6,-5,·,-0.7,?,i,7,·
CC(Nn1cnnc1)c1cc(Cl)ccc1O (centres undefined),4,8,0.5,7,1.8,0.0,-0.9,i,-3,0.68
O=C(N/N=C\c1cccc(Cl)c1)c1ccc(Cn2cccn2)o1,5,24,1.0,-11,·,3.1,3.1,i,0,·
COC(=O)c1ccc2c(c1C(=O)OC)CN(S(=O)(=O)C(C)(C)C)[C@@H]2CCO,9,-1,4.4,·,0.8,·,-6.3,i,·,0.69
CN1CCN(CCOCCOc2ccc(Br)cc2Cl)CC1,3,-7,2.7,50,2.6,0.3,3.2,i,-5,0.67
O=C(NCc1cccc(F)c1)C1CCC(=O)N(CCCN2CCOCC2)C1 (centres undefined),5,12,0.0,-17,5.1,0.4,-2.5,i,-1,0.73
Cc1nc(SCCC(=O)O)c2cc(-c3ccccc3)sc2n1,-26,-38,-2.1,2,-11,-5.9,-1.8,i,-5,0.72
Cc1nc(N/N=C/c2ccc(Br)cc2)cc(N2CCOCC2)n1,-6,-3,-0.2,41,·,0.9,3.9,i,5,·
CCOC(=O)C1=CN(CC)S(=O)(=O)NC1c1cccc(OC)c1 (centres undefined),2,14,1.1,·,-1.0,·,-1.3,i,·,0.72
CCCC(=O)Nc1ccc(C(=O)NCc2ccccn2)cc1,11,4,-0.4,2,3.1,0.1,-1.3,i,·,0.66
CC(C(=O)Nc1ccc(F)cc1Cl)N1CCN(S(=O)(=O)c2cccs2)CC1 (centres undefined),-21,-23,-3.7,·,3.7,·,-1.4,i,·,0.64
Fc1ccc(-c2noc(C3CCN(Cc4cccnc4)CC3)n2)cc1,·,·,·,36,3.7,-1.2,·,·,-1,0.73
O=C(CS(=O)c1cccc(C(F)(F)F)c1)Nc1ccccc1Cl (centres undefined),·,·,·,-8,3.7,0.2,·,·,-6,0.69
N/C(=N\c1nc(CSc2nc3ccccc3s2)cc(=O)[nH]1)Nc1ccc(F)cc1,11,-2,-0.4,10,5.5,1.6,-29,i,7,0.67
CCOc1ccc(N(C)S(=O)(=O)c2ccc(C)c(C(=O)NCCc3ccc(OC)cc3)c2)cc1,-9,-22,-1.1,·,-0.5,·,6.7,i,·,0.7
CN(C)S(=O)(=O)c1ccc(NC(=S)NC(=O)c2cccs2)cc1,2,0,3.1,-2,0.7,-0.4,0.2,i,-4,0.71
Cc1c(C(=O)Nc2nccs2)oc2ccc(F)cc12,5,17,1.5,·,-5.4,-3.6,-3.9,i,3,0.7
Cc1ccccc1NC(=O)N1CCCC1C(=O)NCc1ccccc1 (centres undefined),11,7,1.1,8,1.0,-0.7,0.6,i,-4,0.64
CCOc1ccc(N(Cc2cc3ccc(C)cc3[nH]c2=O)S(C)(=O)=O)cc1,12,8,-6.1,-21,1.6,0.6,-38,i,-3,0.71
CC(C)CN1C(=O)C(=O)N(CC(=O)c2ccc3c(c2)CCCC3)C1=O,-1,-22,1.1,·,-1.9,0.0,2.2,i,-3,0.72
CN(CCNC(=O)Cn1c(=O)sc2ccccc21)Cc1ccccc1,8,0,2.5,33,0.6,0.2,0.0,i,-6,0.68
OC[C@@H]1[C@@H](c2ccc(F)cc2)C(c2cccc(Cl)c2)=NN1c1ccccc1,-16,-18,-2.3,·,i,·,-46,i,·,0.73

# (cont.)
SMILES,rRNA inh HTS,rRNA inh HTS OD600,rRNA inh HTS RFP,T cruzi repl,UCH37 inh,A1 inh,MLL AF4-AF9 inh,FGF22 binding,Beta cell apopt,Ecoli growth
Cc1ccccc1NC(=O)CSc1cn[nH]n1,7,11,3.4,-11,0.9,0.0,-1.6,i,-1,0.66
O=C(Nc1cccc(-c2nc3cccnc3s2)c1)c1cccnc1Cl,-29,-39,-14,-3,-0.8,-0.4,-18,i,-10,0.64
CCN1CCN(CCCNC(=O)C2CCCN(c3nnc(-n4cccc4)s3)C2)CC1 (centres undefined),·,·,·,-6,23*,0.0,·,·,3,0.7
CCc1ccc(NC(=O)c2ccc3c(c2)C(=O)N(CCOC)C3Nc2ccc(CC)cc2)cc1 (centres undefined),-6,4,-0.2,-17,5.8,2.4,3.3,i,15,0.69

# Only part of the results is shown; count on the stated rates, not on these rows.
